ClpP mod: qHTS Assay for Activators of ClpP | purified B. subtilis ClpP, FRET peptide cleavage, 20 min | ATP-dependent Clp protease proteolytic subunit (Bacillus subtilis (strain 168)), P80244 | hit rate 1.9% among 340,000 | Potency, µM (highest dose often 57.5 µM), inactives show top-dose activity change, negative = active | AID 651965, 2013; active = well fitted falling curve with a large enough effect; inconclusive = small, poorly fitted or top-dose-only effect; inactive = no such curve, though single readings can be large or run the other way; note: potency is the fitted concentration of half-maximal effect; the source files actives as falling curves though it sought activators and does not explain the sign; nearly all actives have a fitted effect of over 65% in size; many hits overshoot -100%
Target sequence (P80244 whole entry, looked up): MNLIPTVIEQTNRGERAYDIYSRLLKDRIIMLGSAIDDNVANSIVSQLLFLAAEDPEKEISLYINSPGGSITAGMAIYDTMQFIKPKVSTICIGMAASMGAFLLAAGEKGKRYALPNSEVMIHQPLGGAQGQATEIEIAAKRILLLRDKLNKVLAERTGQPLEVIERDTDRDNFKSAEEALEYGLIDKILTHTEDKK
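Purified B. subtilis ClpP, 10 microg/mL final in Tris/HCl pH8 with KCl, BSA, glycerol and Tween-20, cleaved an Abz/nitrotyrosine-quenched decapeptide. Fluorescence (ex 320, em 430) was read at 0 and 20 min at room temperature. Delta was normalized to 5.8 microM ADEP and DMSO/no-enzyme controls.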
gsp ag: qHTS for Agonist of gsp, the Etiologic Mutation Responsible for Fibrous Dysplasia/McCune-Albright Syndrome: qHTS; Potency, µM (highest dose often 76.9 µM), for inactives: top-dose activation (cAMP increase), usual class: activators; gsp mutant cells, cAMP HTRF, 30 min; control for the full effect not named in the record; hit rate 0.13% among 340,000; active = well fitted activation curve with a large enough effect; inconclusive = small, poorly fitted or top-dose-only effect, or another doubt; inactive = no such curve, though single readings can be large or run the other way; cell line not stated here;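 note: phosphodiesterase inhibitor Ro 20-1724 added with compounds to block cAMP breakdown; potency is the fitted concentration of half-maximal effect; nearly all actives have a fitted effect of over 60% in size; about a fifth of the inactives were tested at one dose only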
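Cells in DMEM/10% FBS with G418 were pretreated with compounds in DMSO plus […] (300 uM stock) for 30 min at 37C. cAMP was measured by HTRF (cAMP-d2 plus anti-cAMP antibody-K) after 30 min at room temperature.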
Menin MLL FP FL: qHTS Assay for Inhibitors Targeting the Menin-MLL Interaction in MLL Related Leukemias: Competition With Fluorescein Labeled MLL-derived Peptide; Fluorescence polarization, fluorescein-MLL peptide displacement from menin; 290,000 tested, under 10 active; AID 1766, 2009; FP activity change, % at 61.4 µM; inconclusive = falling polarisation curve, or a change in total fluorescence; inactive = total fluorescence flat and polarisation flat or rising; no compound was filed as active; the % refers to the polarisation; negative = inhibition;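 note: % of control where 0% means no effect; inhibitors lower the polarisation; unlabelled MLL peptide was the positive control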
D2 PAM: Beta-Arrestin HTS for Positive Allosteric Modulators of the Human D2 Dopamine Receptor: Potentiators | hit rate 0.23% among 360,000 | AID 624464, 2012 | D(2) dopamine receptor (Homo sapiens), P14416 | potentiation, % (concentration not given with the values) | DiscoveRx D2 beta-arrestin cells, luminescence, 90 min; 100% = 57 uM dopamine signal; active = potentiation of 50% or more; inconclusive = 30% to 50%; inactive = 30% or less;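 note: compound concentration not given in the record; tested on top of an EC20 dose of dopamine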
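D2 cells co-treated with compound plus 50 nM dopamine (EC20) for 90 min at 37 deg C to detect potentiation. Beta-arrestin recruitment was read as enzyme-fragment luminescence after 1 h at ambient temperature. Full response was set by 57 uM dopamine.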
gsp antagonist: qHTS for Antagonists of gsp, the Etiologic Mutation Responsible for Fibrous Dysplasia/McCune-Albright Syndrome: qHTS | AID 624288, 2012 | gsp-mutant cells, cAMP HTRF, 30 min; control for the full effect not named in the record | Potency, µM (series often up to 76.9 µM), for the others: at the top dose activity change, negative = inhibition, hits mostly inhibitors | hit rate 0.4% among 340,000; active = falling curve of any shape with a large fitted effect; inconclusive = falling curve, mostly with a smaller effect; inactive = flat or rising curve; cell line not stated here;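 note: intracellular cAMP measured with PDE inhibitor Ro 20-1724 present during compound exposure; potency is the fitted concentration of half-maximal effect; % is set by controls: 0 for no effect and ±100 for the full control effect; nearly all actives have a fitted effect of over 65% in size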
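G418-selected cells were plated in DMEM/10% FBS for 16-24 h at 37C, then treated with compounds plus the PDE inhibitor […] (300 uM solution added) for 30 min at 37C. Intracellular cAMP was measured by HTRF after 30 min lysis at room temperature.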
TRPV1 PAM: HTS Assay for Compounds that Act as Potentiators of the Vanilloid Receptor 1; Transient receptor potential cation channel subfamily V member 1 (Homo sapiens), Q8NER1; TRPV1-expressing cells, Fluo-8 calcium influx, capsaicin EC20 potentiation; host cell line not named in the record; control for the full effect not named in the record; potentiation, % at 8.33 µM; hit rate 0.02% among 320,000; AID 540277, 2011; active means potentiation above 80%; inconclusive means 30% to 80%; inactive means below 30%; note: 0% is about no effect
Target sequence (Q8NER1 whole entry, looked up): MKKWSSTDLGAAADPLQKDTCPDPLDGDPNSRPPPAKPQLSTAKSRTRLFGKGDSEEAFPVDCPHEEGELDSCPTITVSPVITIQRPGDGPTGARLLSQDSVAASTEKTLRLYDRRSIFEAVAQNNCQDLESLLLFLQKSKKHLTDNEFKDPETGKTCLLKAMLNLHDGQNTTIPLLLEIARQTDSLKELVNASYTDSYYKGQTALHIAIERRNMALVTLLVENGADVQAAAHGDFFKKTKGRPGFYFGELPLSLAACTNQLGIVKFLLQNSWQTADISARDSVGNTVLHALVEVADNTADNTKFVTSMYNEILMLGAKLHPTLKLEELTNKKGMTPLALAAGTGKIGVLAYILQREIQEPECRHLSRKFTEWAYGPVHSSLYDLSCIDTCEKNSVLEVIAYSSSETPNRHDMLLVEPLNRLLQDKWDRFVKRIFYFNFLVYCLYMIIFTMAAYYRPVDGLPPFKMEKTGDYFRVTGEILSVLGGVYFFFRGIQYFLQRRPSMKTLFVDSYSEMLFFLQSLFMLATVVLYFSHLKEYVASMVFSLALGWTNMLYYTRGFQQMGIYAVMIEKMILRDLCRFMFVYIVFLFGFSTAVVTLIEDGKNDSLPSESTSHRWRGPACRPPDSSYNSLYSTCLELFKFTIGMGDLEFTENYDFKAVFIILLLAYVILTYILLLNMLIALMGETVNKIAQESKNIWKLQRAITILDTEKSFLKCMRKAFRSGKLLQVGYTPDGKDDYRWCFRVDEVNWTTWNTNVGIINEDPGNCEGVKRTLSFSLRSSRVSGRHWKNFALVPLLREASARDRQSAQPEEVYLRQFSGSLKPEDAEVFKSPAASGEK
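Fluo-8 calcium influx in TRPV1-expressing cells, kinetic read (ex 480/em 520 nm). Compound added and read 3 min for agonist activity, followed by capsaicin at EC20 final and 2 min further read for enhancement.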
Sfp PPTase inh: qHTS Assay for Inhibitors of Bacillus subtilis Sfp phosphopantetheinyl transferase (PPTase). 4'-phosphopantetheinyl transferase ffp (Bacillus subtilis), Q9F4F7. Biochemical Sfp PPTase activity, qHTS. Potency, µM, for inactives: max response, negative = inhibition, most hits filed as inhibitors. hit rate 3.5% among 310,000; active = well fitted inhibition curve with a large enough effect; inconclusive = small, poorly fitted or top-dose-only effect, or another doubt; inactive = no such curve, though single readings can be large or run the other way;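 note: the enzyme is Sfp with the accession as filed and its product quenches rhodamine fluorescence; potency is the fitted concentration of half-maximal effect; 0% = enzyme reaction without inhibitor and -100% = no enzyme wells; top concentration of the series not given in the record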
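Compounds were incubated with enzyme (final 15 nM) for 15 min at room temperature before substrate addition started the reaction. Fluorescence at 525 nm excitation, 598 nm emission was recorded immediately and after 30 minutes.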
Starred values were filed as active, the others as inactive; ? = inconclusive; . = not tested or not shown; & = joins results of further samples; [ ] = dose if it differs, or a comment.

SMILES	ClpP mod	gsp ag	Menin MLL FP FL	D2 PAM	gsp antagonist	TRPV1 PAM	Sfp PPTase inh
COC(=O)C1=C(C)NC(=O)/C1=C\c1ccco1	-1.9%	-1.5%	-1.0	0.4	-3.0%	4.5	-2.9%
O=C(NC(=S)N1CCCC1)c1ccc(Cl)cc1Cl	0.7%	0.1%	.	-4.2	20.0%	3.5	14.7%
CCN(CC)S(=O)(=O)c1cccc(NC(=O)C2CC(=O)N(c3ccc4c(c3)OCCO4)C2)c1 (stereo not given)	.	32.8%[15.4 µM]	.	1.1	-11.5%	?	.
COc1ccc(C(CNC(=O)c2oc3ccc(Cl)cc3c2C)N2CCCCC2)cc1 (stereo not given)	-0.8%&-3.0%	-3.9%	-0.4	-17.2	4.5%	17.8	6.9%
COc1nc(-c2ccccc2)ccc1-c1noc(C)n1	?	?	1.7	-0.4	?	-7.7	-21.1%
COc1ccccc1NC(=O)CSc1nncn1-c1cccnc1	-1.3%	19.1%	-0.2	-2.4	8.7%	15.0	-0.9%
CC(C)COC(=O)CCNc1n[nH]c(=O)[nH]c1=O	0.7%	?	1.6	-1.9	2.8%	-3.7	19.4%
COc1ccc(S(=O)(=O)NCc2ccncc2)cc1NC(=O)c1ccccc1C	.	-11.8%[15.4 µM]	.	13.7	-10.5%	-8.2	.
CCCC(CCC)C(=O)OC1C[C@H]2CC[C@@H](C1)[N+]2(C)C (stereo not given in full)	0.4%	.	-3.0&2.7	-7.2	-8.6%	-5.7	16.1%&20.1%
Cc1cc(S(=O)(=O)Nc2ccc(F)cc2)c(C)s1	-1.7%	0.9%	3.0	-8.2	-27.9%	3.7	-1.1%
CC(C)(C)c1nnc(NC(=O)CCS(=O)(=O)Cc2ccccc2)s1	.	-6.3%[15.4 µM]	7.4	-0.7	6.2%	6.5	5.7%
O=C(NCCCN1CCOCC1)NC1CCCCC1	-14.1%	?	-1.6	-6.6	-4.3%	-2.0	11.1%
O=C1C(=O)N(Cc2ccco2)C(c2cccc(Cl)c2)/C1=C(\O)c1ccc2c(c1)OCCO2 (stereo not given)	-1.2%	?	-1.8	22.8	14.4%	-1.0	?
CCCCC(=O)Nc1cc2nn(-c3ccc(OC)cc3)nc2cc1C	1µM*	-16.3%	4.9	-6.7	11.5%	-5.5	15.8%
O=C(NC(Cc1c[nH]c2ccccc12)C(=O)O)c1ccc(Br)cc1 (stereo not given)	.	-0.4%[15.4 µM]	0.1	-3.9	11.5%	13.1	2.3%
Cc1csc(NC(=O)CCCc2cccs2)n1	-0.8%	6.0%[15.4 µM]	-0.4	-0.1	5.8%	-14.6	-2.2%
CC(C)c1nc(SCC(=O)N2CCCc3ccccc32)c2c(=O)n(C)c(=O)n(C)c2n1	0.8%	-25.8%	1.1	17.4	-30.2%	-11.5	44.7µM*
CCc1ccccc1N(C)S(=O)(=O)c1ccc2[nH]cc(C(=O)O)c(=O)c2c1	1.2%	10.0%[15.4 µM]	1.3	-8.0	-7.8%	-4.2	25.1%
COc1ccc(CN2CCN(CCC(C)C)C(CCO)C2)cc1Cn1cncn1 (stereo not given)	-1.2%	-4.7%	-3.3	-13.1	5.4%	9.1	5.5%
COc1ccc(CCn2c(SCC(=O)Nc3cc(C)on3)nc3ccccc3c2=O)cc1OC	?	-42.2%[inhibitor]	4.9	-4.7	15.2%	-0.2	9.7%
N#Cc1c(NC(=O)C2C3C=CC(C3)C2C(=O)O)sc2c1CCCCC2 (stereo not given)	.	-5.5%[15.4 µM]	-5.2	-3.7	-11.3%	0.3	-3.4%
Cc1ccccc1NC(=O)CN1C(=O)S/C(=C\c2cccn2-c2cccc(C(=O)O)c2)C1=O	-3.1%	-26.4%	13.2	-3.1	-1.9%	-5.7	-19.8%
COc1cccc(-n2c(SCc3ccccn3)nc3c(c2=O)SCC3)c1	.	-7.5%[15.4 µM]	0.6	9.9	7.0%	3.5	0.2%
Cc1cccc(NC(=O)/C(C#N)=C/c2ccc(Sc3ccccc3)o2)c1C	2.1%	4.3%	9.9	-5.1	-22.7%	-15.9	4.5%
COc1ccc(N2C(=O)C(Cl)=C(Oc3cccc(OC)c3)C2=O)cc1	.	-3.3%[15.4 µM]	3.7	-32.0	28.2µM*	1.2	8.91µM*
CN(C)C(/C=C/Nc1ccccc1F)=C(C#N)C#N	0.3%	-2.1%	-0.1	-9.9	-1.6%	-4.3	26.0%
O=C(CCC1(C(=O)O)CCC(=O)NC1)NCc1ccccc1 (stereo not given)	0.4%	0.9%	2.1	-0.3	-0.6%	0.2	6.6%
Cc1ccnc(NC(=O)c2cccc(NC(=O)c3ccc(Cl)cc3)c2)c1	.	16.2%	.	0.3	-29.1%	.	.
O=C(Nc1cccc(-c2cn3c(n2)SCC3)c1)c1ccc2ccccc2n1	.	-2.7%[15.4 µM]	1.9	-0.8	-1.8%	?	0.4%
CC(=O)c1ccccc1NS(=O)(=O)c1ccc2c(c1)CC(=O)N2	-1.5%	-17.6%	.	-1.7	3.4%	-21.9	.
COc1ccc(/C=N/NC(=O)c2cc(-c3ccccc3OC)nc3ccccc23)cc1COC(C)=O	-20.5%	-1.9%	1.7	-33.0	-6.1%	-1.9	11.9%
O=c1[nH]c(CN2CCN(c3ccccc3Cl)CC2)nc2ccsc12	-2.3%	?	2.1	-27.1	11.9%	6.5	12.4%
COc1ccc(CCNC(=O)CN(c2cccc([N+](=O)[O-])c2)S(C)(=O)=O)cc1	.	-7.8%	0.9	-2.5	9.0%	6.5	21.6%
CC(C)Oc1ccc(CSc2ncn[nH]2)cc1	.	9.7%[15.4 µM]	0.0	-0.5	2.9%	-12.7	8.1%
Cc1ccc(N2CC(C(=O)Nc3cc(C)on3)CC2=O)c(C)c1 (stereo not given)	.	1.0%[15.4 µM]	0.4	-1.8	7.9%	20.9	0.9%
COC(=O)[C@H](Cc1ccccc1)NC(=O)c1ccc2ccccc2n1	-1.3%	-2.3%[15.4 µM]	-5.3	9.6	-3.7%	-16.3	-0.9%
COc1ccc(-n2c(C)cc3cc(OC(C)=O)ccc32)cc1	-1.3%	-0.2%[15.4 µM]	-6.2	-2.6	1.7%	-15.4	-17.1%
Cc1cc(CN(C)C(=O)CC2C(=O)NCCN2Cc2ccc(-c3ccccc3)cc2)on1 (stereo not given)	-4.3%	?	5.3	-20.9	12.2%	23.2	-1.1%
COC(=O)c1cc2ccsc2n1CC(=O)Nc1cc(C)cc(C)c1	-8.3%	-55.3%[inhibitor]	-0.2	-6.3	0.6%	-18.0	12.0%
Cc1ccc(NC(=O)c2cc(-c3ccco3)on2)cc1	?	-5.0%	7.6	-2.5	4.5%	-3.5	10.7%
COc1ccc(S(=O)(=O)N2CCOCC2)cc1NC(=O)CSc1nnc2ccccn12	.	.	-0.5	.	.	2.3	11.7%
Cc1ccc(S(=O)(=O)N2C[C@H]3C(=O)C[C@@H](c4ccc(Cl)cc4)N(S(=O)(=O)c4ccccc4C)[C@H]3C[C@H]2c2ccccc2)cc1	0.6%	-13.2%	.	3.0	.	.	.
Cc1ccc2nc(SCC(=O)Nc3ccc(F)cc3)nc(=O)n2c1	-1.4%	14.1µM*	.	-10.9	17.5%	4.1	.
O=C(Nc1ccc(-c2nc3c(ccc4ccccc43)o2)cc1)c1ccco1	12.6µM*	6.9%	-1.6	2.2	3.2%	5.1	-10.9%
CCn1c2ccccc2c2cc(Nc3cc(C)nc4ncnn34)ccc21	0.0%	16.9%	4.7	0.6	15.4%	-10.7	-24.8%
O=C(CC1NCCc2ccccc21)Nc1cccc(Cl)c1 (stereo not given)	.	11.7%	2.6	-17.3	5.7%	23.1	26.4%
Cc1ccccc1CSCCNS(C)(=O)=O	0.2%	0.8%	9.6	-12.6	-4.1%	0.8	10.7%
Cc1cc(C)n(CC(=O)NNC(=O)CCNC(=O)c2ccccc2Cl)n1	-3.2%	-3.5%[15.4 µM]	.	-3.2	7.5%	7.2	.
O=C(COC(=O)c1ccccc1Cl)Nc1nccs1	1.1%	-28.1%	2.4	-6.4	6.3%	-12.4	10.4%
O=c1c(Cc2ccc(F)cc2)c(O)ccn1CCc1ccccn1	-0.3%	-7.8%	-2.7	-1.9	10.5%	15.3	9.2%
Cc1ccccc1-n1c(SC/C(O)=C(\C#N)c2nc3ccccc3[nH]2)nnc1-c1ccncc1	-8.5%	-37.4%[inhibitor]	?	-0.8	7.2%	14.3	9.6%
Cc1ccc(NC(=O)c2c(C)noc2-c2snnc2C)cc1	-12.5%	-6.0%[15.4 µM]	0.5	1.4	-13.6%	0.5	10.5%
CCN1C(=O)CSc2ccc(C(=O)OC)cc21	1.3%	?	-1.4	0.3	5.3%	-11.1	0.2%
COc1cccc2c1C(=O)O/C2=C/c1ccc2c(c1)OCO2	.	.	1.0	.	.	-4.9	-16.6%
COc1ccc(N2CC(C(=O)Nc3nnc(SCC(=O)NCC4CCCO4)s3)CC2=O)cc1 (stereo not given)	-1.6%	0.1%	.	-2.2	-1.5%	.	.
CNC(=S)N1CCN(S(=O)(=O)c2ccc3ccccc3c2)CC1	-2.0%	13.7%[15.4 µM]	2.3	-8.2	-5.2%	?	9.1%
O=C(NCC(=O)N1CCc2ccccc2C1)c1ccccc1Cl	-29.2%	-1.1%[15.4 µM]	-1.9	-8.9	7.2%	11.1	11.6%
Cc1noc(C)c1CSCC(=O)Nc1cc(S(=O)(=O)N2CCOCC2)ccc1OC(C)C	1.3%	-1.4%	.	-35.8	-2.0%	-11.8	.

Bioassay records (PubChem)
